MbtI inh – MbtI salicylate synthase inhibitors, primary screen, biochemical, fluorescence intensity; AID 493033, 2011; inhibition, %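 (about 17 µg/mL by stock and volumes)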; P9WFX0; purified MbtI enzyme, fluorescence intensity read-out; hit rate 0.89% among 100,000;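 active = above 50% in both replicates, above 80% if mildly self-fluorescent; inactive = the rest, strongly fluorescent compounds included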;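 also: 0% = mean of negative and 100% = mean of positive controls; one replicate is shown; some compounds called inactive have numbers as strong as hits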
Target sequence (P9WFX0 whole entry, looked up): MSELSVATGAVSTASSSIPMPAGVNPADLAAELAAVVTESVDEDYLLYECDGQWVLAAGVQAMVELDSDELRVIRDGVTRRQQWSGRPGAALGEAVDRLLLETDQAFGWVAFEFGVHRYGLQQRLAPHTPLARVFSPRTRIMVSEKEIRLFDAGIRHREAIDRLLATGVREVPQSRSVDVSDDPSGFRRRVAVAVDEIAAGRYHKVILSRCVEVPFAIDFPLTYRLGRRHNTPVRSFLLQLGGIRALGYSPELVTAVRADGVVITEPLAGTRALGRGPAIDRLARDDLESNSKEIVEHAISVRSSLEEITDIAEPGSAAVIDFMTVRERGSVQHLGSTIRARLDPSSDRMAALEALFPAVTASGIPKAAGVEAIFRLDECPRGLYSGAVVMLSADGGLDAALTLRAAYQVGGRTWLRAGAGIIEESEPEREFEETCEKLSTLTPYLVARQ
MenB inh – M. tuberculosis MenB inhibitors, primary screen, biochemical, absorbance; hit rate 0.43% among 100,000; MenB enzyme assay, absorbance read-out; some hits fall short of the stated cut; AID 540299, 2011; inhibition, %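 (about 12 µg/mL by stock and volumes)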;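 active = mean of two replicates above 30%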;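 also: 0% = no compound and 100% = wells with inactive enzyme; the first replicate is given; strong numbers were not always called active; inactives centre near -10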
Target sequence (P9WNP5 whole entry, looked up): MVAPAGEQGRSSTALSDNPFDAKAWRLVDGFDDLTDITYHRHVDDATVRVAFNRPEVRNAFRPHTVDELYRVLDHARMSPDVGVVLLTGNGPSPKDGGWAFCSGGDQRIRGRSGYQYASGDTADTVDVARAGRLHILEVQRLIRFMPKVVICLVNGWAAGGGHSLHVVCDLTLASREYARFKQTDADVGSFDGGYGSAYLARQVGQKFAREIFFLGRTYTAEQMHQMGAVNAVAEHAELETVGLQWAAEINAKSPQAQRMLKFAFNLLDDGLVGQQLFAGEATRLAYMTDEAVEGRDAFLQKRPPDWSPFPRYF
PV pol inh – poliovirus RdRp elongation inhibitors, primary screen, biochemical, fluorescence polarization, total intensity; Genome polyprotein (Poliovirus type 1 (strain Mahoney)), P03300; poliovirus polymerase elongation; hits give low values; % elongation, % (compound at 16.7 µg/mL); hit rate 0.66% among 150,000; AID 588519, 2011; in the data active = % elongation below about 90%; also: some results filed as inactive read as strong as hits
PV pol inh intensity – recorded beside PV pol inh, whose call it bears; % elongation; measured here: total intensity read-out; formula for this scale not given here;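 total fluorescence in place of polarization; lower means less elongation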
* marks the source's active call; other numbers are inactive results; · = no result given; & = joins results of further samples.

A first look:
SMILES	MbtI inh	MenB inh	PV pol inh	PV pol inh intensity
CC(=O)Nc1ccc2c(c1)OCO2	-4	·	103	100
CCN1CCN(Cc2ccc(Cl)cc2)CC1	1	-36	98	98
COc1ccc(N2CCN(C(=O)c3ccc(=O)[nH]c3)CC2)cc1	19	-23	·	·
Cc1ccc(C(=O)Sc2ncc(C(F)(F)F)cc2Cl)cc1	39	1	93	103
O=C(Nc1cccnc1)C1CC(c2ccccc2O)=NO1 (configuration not stated)	2	17	100	102

This part in full, from the first entry:
SMILES	MbtI inh	MenB inh	PV pol inh	PV pol inh intensity
CC(=O)Nc1ccc2c(c1)OCO2	-4	·	103	100
CCN1CCN(Cc2ccc(Cl)cc2)CC1	1	-36	98	98
COc1ccc(N2CCN(C(=O)c3ccc(=O)[nH]c3)CC2)cc1	19	-23	·	·
Cc1ccc(C(=O)Sc2ncc(C(F)(F)F)cc2Cl)cc1	39	1	93	103
O=C(Nc1cccnc1)C1CC(c2ccccc2O)=NO1 (configuration not stated)	2	17	100	102
O=c1[nH]c(-c2cccc(O)c2)nc2c1Cc1ccccc1O2	-17	-9	105	99
CC(Oc1ccc(C#N)cc1)C(=O)Nc1cc(Cl)ccc1-n1cncn1 (configuration not stated)	-8	-12	104	92
Cc1ccc(/C=C/C2=NC(=C\c3ccc(C)o3)/C(=O)O2)cc1	-76	-24	108	112
COc1ccc(NC(=S)NCCc2c[nH]c3ccccc23)c(OC)c1	-5	-35	102	107
COc1cccc(-n2cc(C(=O)N3CC=C(c4ccccc4)CC3)c3ccccc3c2=O)c1	-4	-74	104	106
CCCCn1c2ccccc2n2cc(-c3ccc4c(c3)OCO4)nc12	-12	-33	101	95
O=C(CCSCCc1ccccn1)Nc1cc(-c2cccc(Cl)c2)no1	-7	-32	100	103
CCC(=O)N1CCc2cc(S(=O)(=O)NC(CC(C)C)C(=O)N3CCC(C)CC3)ccc21 (configuration not stated)	-4	-19	101	96
O=C1CCC(=O)N1c1ccccc1	-21	-14	103	104
CCC(C)(C)NC(=O)c1ccc2c(c1)N(CC#N)C(=O)C(C)(C)O2	41	-3	101	102
O=C(NCCN1CCOCC1)Nc1c[nH]c2ccccc12	102	6	106	109
O=C(CN1CCN(c2ccccc2Cl)CC1)N1CCc2ccccc21	50	-36	103	111
O=C(NCc1cn2ccsc2n1)c1cccs1	-5	-6	102	109
COCCNC(=S)N1CCC(Cc2ccccc2)CC1	-3	-9	98	99
Cc1oc(-c2cccs2)nc1CSCC(=O)N1CCC2(CC1)OCCO2	103	-13	100	104
c1ccc(Cn2c(C3CC3)nc3ccccc32)cc1	·	-2	103	103
O=C(CSC(=S)N1CCCCC1)N1c2ccccc2CCc2ccccc21	16	2	106	98
CCCCc1ccc(NC(=O)C(C)CC)cc1 (configuration not stated)	·	-5	99	102
CC1(C)CC(=O)C(=Cc2cn(CCC#N)nc2-c2ccc(F)cc2)C(=O)C1	-1	·	103	99
O=C(CCNS(=O)(=O)c1ccccc1)N1CCCC1	-8	2	102	103
Cc1noc(C)c1CCC(=O)Nc1ccc(-c2cc3ccccc3o2)cc1	-82	-18	102	94
COc1ccccc1NC(=O)Cc1coc2c(C)c(C)ccc12	0	0	101	96
COc1ccc(C(=O)OCC(=O)N2c3ccccc3CC2C)cc1 (configuration not stated)	4	9	101	101
CCCc1nn2cc(CC(=O)NN)nc2s1	5	8	100	99
CCN(C(=O)CSc1ccc(Br)cc1)c1ccccc1	19	·	100	99
CCCCn1c(=O)c2oc3ccccc3c2n(CC(=O)Nc2cccc(OC)c2)c1=O	-10	-16	104	103
S=C(NCc1ccccc1)NC(Cc1ccccc1)c1ccccc1 (configuration not stated)	-12	-43	105	104
O=C(/C=C/c1ccccc1)OCc1nc2ccccc2s1	-5	·	103	102
CCc1c(C)c2ccc(O)c(CN(C)C)c2oc1=O	80	-18	98	100
C=CCn1c(SCC(=O)Nc2cc(OC)c(NC(=O)c3ccco3)cc2OC)nnc1-c1ccncc1	25	-12	105	101
O=C(Nc1sc2c(c1C(=O)NCc1ccco1)CCC2)c1cccs1	2	-5	101	103
CC(Sc1nc2ccccc2c(=O)n1Cc1ccco1)C(=O)NCc1ccc2c(c1)OCO2 (configuration not stated)	10	-35	102	103
CC(C)C(=O)NCCc1ccc(S(N)(=O)=O)cc1	11	-10	100	91
CCOc1ccc(NC2=NC(C)(C)N=C(N)N2)cc1	2	-13	101	102
CCOC(=O)N1CCN(C(=S)NC(=O)c2ccc(F)cc2)CC1	·	-22	103	91
O=C(c1cc(S(=O)(=O)N2CCCC2=O)c(Cl)cc1Cl)N1CCCCC1	-15	-7	102	102
Cc1cc(/C(O)=C2\C(=O)C(=O)N(CCCN(C)C)C2c2ccc(O)cc2)ccc1OCC(C)C (configuration not stated)	-3	22	104	106
CCCn1cnc2cc(NCc3ccccc3O)ccc21	108	2	101	102
CCOC(=O)COc1ccc(-c2nn[nH]n2)cc1	·	-4	107	112
CCOc1ccc2c(c1)C1C=CCC1C(c1ccc(C(=O)OC)cc1)N2 (configuration not stated)	·	-32	103	105
O=C(CNC(=O)c1ccc(Br)o1)NC1CCCc2ccccc21 (configuration not stated)	7	-32	97	88
CCOC(=O)c1c(-c2cccs2)csc1NC(=O)CSc1nncn1C	11	-7	105	108
COC(=O)c1ccc2c(c1)N(CC(=O)N1CCOc3ccc(C)cc31)C(=O)CS2	-3	-26	103	103
COc1ccc(-c2nn(CCC(=O)O)c3nc(C)cc(C)c23)c(OC)c1	102	7	102	99
CC(C)(C)OC(=O)N1CCOCCN(C(=O)OC(C)(C)C)CCOCC1	-1	3	99	101
Cc1ccc(NC(=O)CC2SC(=NC3CCCC3)NC2=O)cc1Cl (configuration not stated)	0	-1	98	105
CN(Cc1ccccc1)S(=O)(=O)c1cc2c3c(c1)CCN3C(=O)CC2	-6	-6	104	99
O=C(NC(=S)NCc1cccs1)c1cccs1	5	-13	97	100
c1ccc2c(c1)NC(CN1CCOCC1)CO2 (configuration not stated)	·	4	103	109
CNC(=O)c1cnc2c(c(C)nn2-c2ccccc2)c1Cl	100	-4	102	109
COc1cc(/C=C2\C(=N)N3N=C(C)SC3=NC2=O)cc(Cl)c1OCCOc1ccc(NC(C)=O)cc1	-10	-27	102	101
COc1ccccc1C(=O)Nc1ccc(NC(=O)c2ccccc2)nc1	-4	-39	101	106
Cc1cc(COC(=O)c2ccc3ncsc3c2)no1	-1	-10	100	100
CCOC(=O)C1C(=O)C=C(c2ccco2)CC1c1ccc(F)cc1 (configuration not stated)	11	-20	100	104
CCN=c1scc(-c2ccc(F)cc2)n1/N=C(\C)CC(C)C	-5	-14	103	104
Following part
SMILES	MbtI inh	MenB inh	PV pol inh	PV pol inh intensity
COC(=O)Cn1c(=S)[nH]c2ccccc2c1=O	-4	-19	103	98
O=C(Cn1ccc2ccccc2c1=O)NCCC(=O)N1CCN(c2cccc(Cl)c2)CC1	-1	-25	102	101
CCOC(=O)c1nc(N)c(=O)n(-c2ccc(C(=O)O)cc2)n1	·	-15	99	94
CCN(Cc1ccccc1)S(=O)(=O)c1ccc(-c2cc(C(F)(F)F)no2)s1	-5	-31	105	103
COc1ccc(/C=C(\NC(=O)c2ccccc2)C(=O)N2CCN(C)CC2)cc1	21	-56	105	101
CCN(CC)S(=O)(=O)c1ccc(/C=C/C(=O)N=c2sccn2C)cc1	2	-16	105	113
C=C1N2CCC(CC2)C1(O)c1ccc(C)cc1 (configuration not stated)	-2	-12	100	99
Cc1ccc(C(=O)NC(C)C)cc1C	-18	7	101	101
Cc1ccc2nc(Cl)c(CC3CC(c4ccccc4)=NN3C(=O)CCCC(=O)O)cc2c1 (configuration not stated)	0	7	101	98
O=C1NC(=O)c2cc(S(=O)(=O)N(CCO)CCO)cc3cccc1c23	5	-13	96	99
COc1ccc(OC)c(-n2c(-c3cc(-c4ccco4)[nH]n3)n[nH]c2=S)c1	49	-38	102	102
CC(C)NC(=O)Cn1cnc2c1c(=O)n(C)c(=O)n2C	-1	-2	100	103
CCC(C)NC(=O)c1c(-c2c(F)cccc2Cl)noc1C (configuration not stated)	-7	·	101	105
O=c1c2ccccc2c(/C=N/n2cnnc2)c(O)n1-c1ccccc1	32	-140	99	138
Cc1ccc(/C=C/C(=O)NC(=S)N2CCN(c3ccc(F)cc3)CC2)cc1	·	-6	110	112
COc1ccc(N(C)C(C)=O)cc1	-12	-5	104	101
CC(C)(C)c1ccc(NC(=O)COC(=O)c2ccc(F)cc2F)cc1	1	·	101	96
CCNC(=S)Nc1cc(-c2ccc(Cl)cc2)[nH]n1	45	-66	101	100
CCCC1C2CC(C)CC=C2C(C#N)=C(N)C1(C#N)C#N (configuration not stated)	9	-20	101	109
CCOC(=O)C1CCCN(C(=O)COc2ccccc2F)C1 (configuration not stated)	2	·	104	100
COc1cc(C(=O)NC2=C(C#N)CCC2)cc(OC)c1OC	2	-22	102	98
NC(=O)c1ccc(NC(=O)C#Cc2ccccc2)cc1	8	-43	102	102
Cc1c(F)cccc1NC(=O)c1cc(=O)n(C)c(=O)n1C	-8	4	103	103
O=c1[nH]cnc2nn(-c3ccccc3)nc12	·	-8	101	104
CC(C)CNC(=O)c1ccc2snnc2c1	10	14	101	97
O=C1NC(c2cccnc2)Nc2ccccc21 (configuration not stated)	106	2	103	102
COc1ccc(C(=O)OC2CCCCC2=O)cc1OC (configuration not stated)	4	7	99	103
O=C(C1CCCCC1)N(Cc1nc2sc3c(c2c(=O)[nH]1)CCCC3)Cc1cccs1	-19	-21	102	103
CC(C)CNc1cc(Cl)c2noc3c2c1C(=O)c1ccccc1-3	-1	7	71	194
NC(=O)Cn1c(=O)n(Cc2ccco2)c(=O)c2ccccc21	-3	-29	103	99
Cc1cc(N(C(=O)c2cnccn2)C(C(=O)NCc2ccccc2)c2cccs2)ccc1-n1cnnn1 (configuration not stated)	0	-10	105	102
CC(C)(CNS(=O)(=O)c1ccc2ccccc2c1)N1CCOCC1	-16	-24	102	103
Nc1cc(N)nc(Sc2ncnc3ccccc23)n1	11	-18	101	99
CCCNC(=O)N1CCn2cccc2C1C (configuration not stated)	11	18	96	107
O=C(NCCC1=CCCCC1)c1ccc2snnc2c1	·	-12	103	102
CN1C(C(=O)Nc2ccccn2)=C(O)c2sccc2S1(=O)=O	-14&-8	-2&2	99&99	102&101

Four entries from above, as labelled records.
SMILES: CC(C)(CNS(=O)(=O)c1ccc2ccccc2c1)N1CCOCC1
  MbtI inh = -16; MenB inh = -24; PV pol inh = 102; PV pol inh intensity = 103
SMILES: O=C1NC(c2cccnc2)Nc2ccccc21 (configuration not stated)
  MbtI inh = 106; MenB inh = 2; PV pol inh = 103; PV pol inh intensity = 102
SMILES: CCCNC(=O)N1CCn2cccc2C1C (configuration not stated)
  MbtI inh = 11; MenB inh = 18; PV pol inh = 96; PV pol inh intensity = 107
SMILES: O=C(C1CCCCC1)N(Cc1nc2sc3c(c2c(=O)[nH]1)CCCC3)Cc1cccs1
  MbtI inh = -19; MenB inh = -21; PV pol inh = 102; PV pol inh intensity = 103

Next part.
SMILES	MbtI inh	MenB inh	PV pol inh	PV pol inh intensity
C/C(=N\Nc1nc2sc3c(c2c2ncnn12)CC(C)(C)OC3)C(=O)O	-20	-32	103	100
CN(C)c1ccc(/C=N/N=C/c2ccc(N(C)C)cc2)cc1	-3	-63	99	103
Cc1ccc(-c2nn(-c3ccccc3)cc2/C=C2\SC(=S)NC2=O)cc1	1	·	102	95
C=CCN1C(=O)C(CC(=O)Nc2ccc(Cl)cc2)SC1=Nc1ccc(O)cc1 (configuration not stated)	7	11	103	101
CCOc1ccccc1N=C1NC(=O)CS1	-125	-17	111	119
O=C(Cn1c(=O)n(Cc2ccco2)c(=O)c2sc3ccccc3c21)NC1CCCC1	8	16	102	104
O=C(CCn1cccc1)N(CCN1CCOCC1)Cc1ccco1	-9	13	99	102
Cn1c(=O)c2c(nc(SCC(=O)c3ccccc3)n2CCCc2ccccc2)n(C)c1=O	-12	-22	104	105
CC(CC1C(C#N)=C(N)SC(N)=C1C#N)c1ccccc1 (configuration not stated)	58	-121	82	193
N#Cc1c(N)nc(CCc2ccccc2)c(C#N)c1N	·	8	123	140
CCN1CCSC1=Nc1ccc(OC)cc1	10	11	·	·
CC12CC3(C)CC(C)(C1)CC(C(=O)O)(C2)C3	-7	-5	103	109
O=C(COc1ccccc1)NC1=NCCS1	-3	13	101	100
Cc1nn(C(=O)c2cc3sc(Br)cc3[nH]2)c(C)c1C	-10	-67	106	109
CC(C)CN(CC(C)C)C(=O)Nc1ccccc1C(F)(F)F	·	-2	101	99
COc1cc2[nH]c(=O)c(C(=O)NCCCc3ccccc3)c(O)c2cc1OC	·	-3	102	108
O=C(CC1COc2ccccc2O1)NCc1ccccc1 (configuration not stated)	2	-9	102	102
COc1ccc(C(=O)/C=C2\NC(=O)CS2)cc1	-7	-84	101	105
COC(=O)C1=C(O)/C(=C\c2cc(C)n(-c3ccc(OC)c(Cl)c3)c2C)N=C1C	26	-35	99	106
CCOc1ccc(NC(C)=O)cc1Br	-14	·	101	100
COC(=O)C(OC(=O)c1ccc(-n2cccn2)cc1)c1ccccc1 (configuration not stated)	21	-34	104	108
Cc1ccc2cc(C#N)c(NCCNC(=O)Nc3ccccc3C)nc2c1	13	0	100	103

Screening data as filed in PubChem BioAssay.
